# Source: PubChem
# Cruzain Triton: inhibitors of Trypanosoma cruzi cruzain with detergent | P25779 | purified cruzain, Z-FR-AMC fluorescence, 0.01% Triton | Potency, µM, inactives show max response, negative = inhibition, usual class: inhibitors | actives 0.43% (n = 200,000); active = well fitted curve in the direction sought with a large enough effect; inconclusive = small, poorly fitted or top-dose-only effect, or another doubt; inactive = no such curve, though single readings can be large; an effect the other way counts as inactive or inconclusive;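 also: plate controls were neutral wells for no effect and buffer without enzyme for full effect; nearly all actives have a fitted effect of over 40% in size; top concentration of the series not given in the record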
# Target sequence (P25779 123-467 limits assumed): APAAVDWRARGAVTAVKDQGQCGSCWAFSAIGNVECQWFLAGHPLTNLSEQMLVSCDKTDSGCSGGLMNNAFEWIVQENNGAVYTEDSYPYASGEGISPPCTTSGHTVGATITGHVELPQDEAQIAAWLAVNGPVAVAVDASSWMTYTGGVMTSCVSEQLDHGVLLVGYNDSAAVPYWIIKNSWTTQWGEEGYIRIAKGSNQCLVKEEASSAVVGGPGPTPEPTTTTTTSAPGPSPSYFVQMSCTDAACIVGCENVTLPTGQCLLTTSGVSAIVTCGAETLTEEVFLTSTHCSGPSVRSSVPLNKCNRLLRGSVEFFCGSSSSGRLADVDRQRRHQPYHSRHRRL
#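 Steps: dispense cruzain (1.5 nM final) in acetate buffer pH 5.5 with DTT and 0.01% Triton X-100; pin-transfer compounds; incubate 15 min RT; add Z-FR-AMC (2 uM final); read fluorescence every 30 s, using the 60 s intensity change.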
# RE007 growth inh: less growth of the S. pombe RE007 Vpr strain | Potency, µM (top dose mostly 92.2 µM), inactives show top-dose activity change, negative = less growth | actives 0.21% (n = 360,000) | S. pombe RE007 Vpr strain, BacTiter-Glo ATP luminescence, 24 h; control for the full effect not named in the record; active = well fitted falling curve with a large enough effect; inconclusive = small, poorly fitted or top-dose-only effect; inactive = no such curve, though single readings can be large or run the other way;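 also: % is scaled to controls: 0 for no effect and ±100 for the full control effect; nearly all actives have a fitted effect of over 50% in size; the assay follows cell death caused by Vpr and the record does not say whether a fall means rescue or toxicity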
#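 Fission yeast RE007 carrying one integrated HIV-1 vpr copy, seeded at OD 0.01 in PMG+AL medium with 23 nL pinned compound. Grown 24 h at 30 degrees; viability read by BacTiter-Glo luminescence after 5 min.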
# NS1 inh: blocks influenza NS1 protein function; S. cerevisiae slowed by influenza A NS1, growth recovery by OD600; actives 0.4% (n = 270,000); Potency, µM (series often up to 46.1 µM), without a hit: top-dose activity, positive = more growth; AID 2326; also: actives are rising curves; nearly all actives have a fitted effect of over 50% in size
#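 A cell-based growth assay was used: compounds that relieve NS1-induced slow growth of budding yeast raise OD600. Assay medium was yeast nitrogen base with ammonium sulphate and -URA supplement, pH 6.0, with 2% galactose.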
# 2A StopGo: FMDV 2A StopGo reporter, luciferase signal | human cells with a luciferase reporter of 2A StopGo recoding; control for the full effect not named in the record | Potency, µM (doses to about 57.9 µM), for the others: top-dose signal change, negative = less light | actives 1.2% (n = 410,000) | AID 1159524; active = well fitted falling curve with a large enough effect; inconclusive = small, poorly fitted or top-dose-only effect; inactive = no such curve, though single readings can be large or run the other way; tested in HEK293T cells; also: % is scaled to controls: 0 for no effect and ±100 for the full control effect; nearly all actives have a fitted effect of over 45% in size; luciferase light after 4 h
# Marburg entry inh: blocks Marburg virus binding to or entry into cells; Marburg virus pseudotyped entry inhibition, cell reporter; control for the full effect not named in the record; about a third of the inactives were read at about 46 µM; actives 1.8% (n = 300,000); Potency, µM (top dose mostly 37.8 µM), for inactives: at the top dose activity change, negative = inhibition, usual class: inhibitors; AID 540276; active = well fitted inhibition curve with a large enough effect; inconclusive = small, poorly fitted or top-dose-only effect, or effect the other way; inactive = flat fitted curve, though single readings scatter; tested in HEK293 cells; about a fifth of its hits are not listed in these tables; also: % is scaled to controls: 0 for no effect and ±100 for the full control effect; luciferase read-out
# Cruzain noTriton: blocks cruzain activity in detergent-free assay. actives 2.3% (n = 200,000). purified cruzain, Z-FR-AMC fluorescence, no detergent. P25779. Potency, µM, for inactives: max response, negative = inhibition, most hits filed as inhibitors; active = well fitted curve in the direction sought with a large enough effect; inconclusive = small, poorly fitted or top-dose-only effect, or another doubt; inactive = no such curve, though single readings can be large; an effect the other way counts as inactive or inconclusive;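 also: plate controls were enzyme without inhibitor for no effect and buffer without enzyme for full effect; nearly all actives have a fitted effect of over 40% in size; top concentration of the series not given in the record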
#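 Purified cruzain at 1.5 nM, pre-incubated 15 min with compound at room temperature in 100 mM sodium acetate pH 5.5, 5 mM DTT, 0.00005% Triton X-100. Reaction started with 2 uM Z-FR-AMC; AMC fluorescence increase over 60 s gives rate.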
# SARS PLpro yeast: blocks SARS-CoV papain-like protease in a yeast assay; actives 0.19% (n = 330,000); S. cerevisiae expressing SARS-CoV PLpro, growth rescue; control for the full effect not named in the record; Potency, µM (highest dose often 32.9 µM), without a hit: at the top dose activity, positive = growth rescue; also: 0% is about no effect; nearly all actives have a fitted effect of over 55% in size; growth read by luminescence after 48 h
# Lassa entry inh: inhibitors of Lassa virus binding or cell entry; Potency, µM (top dose mostly 37.9 µM), inactives show at the highest dose activity change, negative = inhibition, usual class: inhibitors; actives 1.2% (n = 300,000); Lassa virus pseudotype entry inhibition, cell reporter; control for the full effect not named in the record; active means well fitted inhibition curve with a large enough effect; inconclusive means small, poorly fitted or top-dose-only effect, or effect the other way; inactive means flat fitted curve, though single readings scatter; tested in HEK293 cells; also: % is scaled to controls: 0 for no effect and ±100 for the full control effect; nearly all actives have a fitted effect of over 50% in size; luciferase read-out
# The depositor's hits bear a star; ? = inconclusive; nt = no result given; & = joins results of further samples; [ ] = dose if it differs, or a comment. Unless noted, calls follow the shape of the dose curve; as a rule, active means well fitted rising curve with a large enough effect; inconclusive means small, poorly fitted or top-dose-only effect; inactive means no such curve, though single readings can be large or run the other way. Potency is read from the fitted curve at half-maximal effect.
item	smiles	Cruzain Triton	RE007 growth inh	NS1 inh	2A StopGo	Marburg entry inh	Cruzain noTriton	SARS PLpro yeast	Lassa entry inh
1	COc1ccc(S(=O)(=O)NC(C)c2ccccc2)cc1C(=O)N1CCCCC1 (configuration not stated)	nt	1%	5%	-19%	?	nt	1%	0%
2	O=C(Cc1c(F)cccc1Cl)N/N=C/c1cccs1	nt	21%	-1%	46%[activator]	19%[46.1 µM]	nt	7%	5%[46.1 µM]
3	Cc1ccc(-n2c(SCC(=O)NCc3ccco3)nc3sc4c(c3c2=O)CC(C)(C)SC4)cc1	-15%	1%	22%	10%	-3%	?	-4%	?
4	Cc1ccc2nc(C)c(C(=O)O)cc2c1	nt	-7%	nt	-11%	14%[46.1 µM]	nt	-1%	0%
5	Cc1nn(Cc2ccc(Cl)cc2)c(C)c1NC(=O)Cn1nc([N+](=O)[O-])c(Cl)c1C	9.7%	19%	14%	-21%	?	13%	7%	7%
6	Cc1cc(C(=O)N2CCN(c3ncccn3)CC2)c(C)o1	1.1%	6%	-2%	-2%	4%	-3%	8%	?
7	Cc1cnn(CCC(=O)NNC(=S)NCC(C)C)c1	1.2%	1%	5%	-10%	-10%	1%	11%	20%
8	Cc1cnc(NC(=O)c2c(O)c3cccc4c3n(c2=O)CCC4)s1	2.0%	nt	-15%	nt	1%	8%	1%	nt
9	Cc1ccc(NC(=O)C(Cc2ccccc2)NS(=O)(=O)c2ccc3c(c2)oc(=O)n3C)cc1F (configuration not stated)	1.0%	nt	nt	6%	-5%[46.1 µM]	-18%	nt	-2%[46.1 µM]
10	Cn1cccc1/C=N/n1cnnc1	-0.5%	4%	6%	56%[activator]	-1%	22%	2%	0%
11	CCC(=NC(CC)CO)C1=C(O)CC(C)(C)CC1=O (configuration not stated)	-0.6%	-3%	-2%	19%	7%	-7%	-7%	13%
12	COC(=O)c1c(-c2ccc3ccccc3c2)csc1NC(=O)Cc1ccc(OC)c(OC)c1	-3.1%	8%	-5%	10µM*	?	-26%	-3%	?
13	CC(C)NS(=O)(=O)c1ccc2c(c1)oc(=O)n2C	-1.8%	22%	3%	5%	nt	7%	-3%	nt
14	CC(=O)c1cccc(NC(=O)Cn2c(SCC(=O)Nc3ccc(F)cc3)nc3ccccc32)c1	-6.9%	nt	nt	-7%	nt	?	nt	-22%[46.1 µM]
15	Cc1nc(N)sc1C(=O)OCC(C)C	nt	3%	nt	-1%	9%[46.1 µM]	nt	-7%	14%[46.1 µM]
16	CC(=O)Nc1sc(C)c(C)c1C(=O)OCC(=O)N(CCC#N)c1cc(C)cc(C)c1	nt	-8%	nt	-9%	-5%	nt	-3%	-18%
17	Cc1ccc(C2Nc3cc(C)c(C)cc3-n3c(-c4ccccc4)c4c(=O)n(C)c(=O)n(C)c4c32)o1 (configuration not stated)	-4.0%	nt	nt	-17%	10%[46.1 µM]	6%	nt	10%[46.1 µM]
18	CNC(=O)NC(O)C(Cl)(Cl)Cl (configuration not stated)	nt	-17%	13%	7%	-21%&-21%[46.1 µM]	nt	-2%	28%[46.1 µM]
19	O=C(OCC(=O)N1CCN(C(=O)c2ccco2)CC1)c1cccc(O)c1	nt	-2%	12%	10%	nt	nt	5%	nt
20	Clc1ccc(SCc2cc(-c3ccccc3)no2)cc1	6.7%	3%	2%	6%	-10%	4%	2%	3%
21	Cc1ccc(NC(=O)N2CCCN(Cc3ccc(F)cc3)C2)cc1C	0.0%	4%	2%	-22%	6.3µM*	2%	2%	-17%
22	O=S(=O)(NCCc1csc2nc(-c3ccc(F)cc3)nn12)c1ccc(Oc2ccccc2)cc1	-1.1%	nt	nt	-20%	nt	-11%	nt	-12%[46.1 µM]
23	CCc1ccccc1Nc1sc(C(=O)c2cccc(OC)c2)c(N)c1S(=O)(=O)c1ccccc1	-5.0%	nt	nt	-15%	?	7.9µM*	nt	?
24	Cn1c(=O)c2sccc2n2c(CCCC(=O)NCCc3ccccc3)nnc12	nt	0%	-1%	-10%	nt	nt	0%	nt
25	COc1ccc(N=C2C(=O)N3CCCc4cccc2c43)cc1	-2.9%	-16%	-35%	-12%	8%	-11%	-24%	3%

# Given with one line to a screen: part of the list above.
[10] Cn1cccc1/C=N/n1cnnc1
[11] CCC(=NC(CC)CO)C1=C(O)CC(C)(C)CC1=O (configuration not stated)
[12] COC(=O)c1c(-c2ccc3ccccc3c2)csc1NC(=O)Cc1ccc(OC)c(OC)c1
[13] CC(C)NS(=O)(=O)c1ccc2c(c1)oc(=O)n2C
[14] CC(=O)c1cccc(NC(=O)Cn2c(SCC(=O)Nc3ccc(F)cc3)nc3ccccc32)c1
[15] Cc1nc(N)sc1C(=O)OCC(C)C
[16] CC(=O)Nc1sc(C)c(C)c1C(=O)OCC(=O)N(CCC#N)c1cc(C)cc(C)c1
[17] Cc1ccc(C2Nc3cc(C)c(C)cc3-n3c(-c4ccccc4)c4c(=O)n(C)c(=O)n(C)c4c32)o1 (configuration not stated)
Compound | 10 | 11 | 12 | 13 | 14 | 15 | 16 | 17
Cruzain Triton | -0.5% | -0.6% | -3.1% | -1.8% | -6.9% | nt | nt | -4.0%
RE007 growth inh | 4% | -3% | 8% | 22% | nt | 3% | -8% | nt
NS1 inh | 6% | -2% | -5% | 3% | nt | nt | nt | nt
2A StopGo | 56%[activator] | 19% | 10µM* | 5% | -7% | -1% | -9% | -17%
Marburg entry inh | -1% | 7% | ? | nt | nt | 9%[46.1 µM] | -5% | 10%[46.1 µM]
Cruzain noTriton | 22% | -7% | -26% | 7% | ? | nt | nt | 6%
SARS PLpro yeast | 2% | -7% | -3% | -3% | nt | -7% | -3% | nt
Lassa entry inh | 0% | 13% | ? | nt | -22%[46.1 µM] | 14%[46.1 µM] | -18% | 10%[46.1 µM]

[18] CNC(=O)NC(O)C(Cl)(Cl)Cl (configuration not stated)
Compound | 18
Cruzain Triton | nt
RE007 growth inh | -17%
NS1 inh | 13%
2A StopGo | 7%
Marburg entry inh | -21%&-21%[46.1 µM]
Cruzain noTriton | nt
SARS PLpro yeast | -2%
Lassa entry inh | 28%[46.1 µM]

# New compounds follow.
item	smiles	Cruzain Triton	RE007 growth inh	NS1 inh	2A StopGo	Marburg entry inh	Cruzain noTriton	SARS PLpro yeast	Lassa entry inh
26	CCOC(=O)C(CC)(CC)C(=O)/C=C/c1ccc(OC)cc1	nt	1%	-33%	?	nt	nt	-2%	nt
27	COc1ccc(C(=O)NC(=S)Nc2ccc3c4c(cccc24)CC3)cc1OC	-3.8%	-9%	13%	-30%	-2%	4%	11%	-7%
28	CCN(CCn1cccn1)Cc1nc(-c2ccc(C(=O)OC)cc2)no1	nt	-12%	4%	?	?	nt	-2%	-7%
29	Cn1cc(Br)c(C(=O)Nc2sc3c(c2C(N)=O)CCCC3)n1	nt	-9%	-6%	15%	?	nt	-5%	?
30	Cc1nnsc1C(=O)Nc1ccc(S(=O)(=O)N2CCCCC2)cc1	nt	0%	-17%	-11%	-9%[46.1 µM]	nt	-3%	-16%[46.1 µM]
31	CCOC(=O)CN(C(=O)CSc1nnc2c(n1)[nH]c1ccc(F)cc12)c1ccccc1	-4.3%	-10%	0%	-9%	?	17%	7%	-14%
32	CCCn1c(SCC(=O)N2N=C3/C(=C/c4ccc(OC)cc4)CCCC3C2c2ccc(OC)cc2)n[nH]c1=O (configuration not stated)	-11%	24%	3%	-25%	?	15%	4%	?
33	CCC(=O)N1N=C(c2cccs2)CC1c1ccco1 (configuration not stated)	nt	4%	-2%	-15%	3%[46.1 µM]	nt	-1%	6%[46.1 µM]
34	CCn1ccc2c(OCC(=O)NCc3ccccc3)cccc2c1=O	-1.0%	nt	nt	11%	nt	0%	nt	?
35	CCOC(=O)C(C(=O)N1CCOCC1)C1CCCCC1 (configuration not stated)	1.9%	-5%	12%	19%	-1%	6%	?	12%
36	Cc1cc(C)c(C#N)c(Oc2ccccc2Br)n1	nt	-12%	2%	-13%	13%	nt	1%	16%
37	Cc1[nH]c2ccccc2c1C(=O)Cn1c(=O)oc2ccccc21	-3.5%	17%	-2%	-8%	-7%	1%	-2%	-29%
38	C=CCn1c(SCC(=O)c2ccc(NS(=O)(=O)c3ccccc3)cc2)nnc1-c1cccs1	-1.9%	11%	6%	7%	15%&15%	-7%	-4%	3%
39	CCN(CC)c1ccc(CNc2nnnn2C)cc1	nt	-8%	-5%	-2%	-6%[46.1 µM]	nt	-6%	1%[46.1 µM]
40	CC(C)C(=O)Nc1ccc(NC(=S)NC(=O)c2ccc([N+](=O)[O-])cc2)cc1	-6.2%	-2%	18%	-4%	5%	-2%	6%	-8%
41	COC(=O)c1ccc(NC(=O)c2cc(S(=O)(=O)N3CCC(C)CC3)cn2C)cc1	-0.2%	nt	nt	?	nt	3%	nt	27%[46.1 µM]
42	COc1cc(C)c(CN2CC=C(c3ccc(F)cc3)CC2)cc1C	nt	9%	-6%	?	?	nt	2%	-8%
43	CCNC(=O)c1ccc2c(c1)S(=O)(=O)c1ccccc1C2=O	1.0%	10%	-7%	5%	7%	-13%	-7%	2%
44	CC(C)(C)c1ccc(C(=O)N2CCN(C(=O)c3ccco3)CC2)cc1	nt	-8%	1%	-8%	-14%	nt	-2%	?
45	O=c1sc2ccccc2n1COc1ccccc1	-0.1%	-16%	2%	25%	0%	-2%	6%	28%
46	CC(=O)N1N=C(C)CC1c1ccc(OCc2ccccc2)cc1 (configuration not stated)	0.0%	9%	-16%	-12%	?	-4%	-20%	4%
47	CC(C)c1ccc(O)c(CN2CCN(c3ccccc3)CC2)c1	-3.2%	-19%	-4%	?	?	-8%	-30%	?
48	O=C(COc1ccc2ccccc2c1)N1CCN(C(=O)c2ccc([N+](=O)[O-])cc2)CC1	nt	20%	nt	-20%	19%[46.1 µM]	nt	2%	-7%
49	CCOC(=O)c1cc(S(=O)(=O)N2CCN(c3cccc(OC)c3)CC2)[nH]n1	-3.1%	nt	nt	-8%	nt	-2%	nt	-6%[46.1 µM]
50	C=CCN1C(=O)C2(C(C#N)=C(N)Oc3n[nH]c(CCC)c32)c2ccccc21 (configuration not stated)	1.1%	3%	1%	-16%	-1%	10%	22%	?
